Assay outcomes: PubChem, National Center for Advancing Translational Sciences (NCATS)
MARV entry inh: qHTS for inhibitors of binding or entry into cells for Marburg Virus | Marburg virus pseudotyped entry inhibition, cell reporter; control for the full effect not named in the record; about a third of the inactives were read at about 46 µM | hit rate 1.8% among 300,000 | Potency, µM (titrated, usually from 37.8 µM), for the others: at the highest dose activity change, negative = inhibition, actives largely listed as inhibitors; active = well fitted inhibition curve with a large enough effect; inconclusive = small, poorly fitted or top-dose-only effect, or effect the other way; inactive = flat fitted curve, though single readings scatter; tested in HEK293 cells; about a fifth of its hits are not listed in these tables; note: % is set by controls: 0 for no effect and ±100 for the full control effect; luciferase read-out
Cruzain inh Det: qHTS Assay for Promiscuous and Specific Inhibitors of Cruzain (with detergent). Cruzipain (Trypanosoma cruzi), P25779. purified cruzain, Z-FR-AMC fluorescence, 0.01% Triton. Potency, µM, inactives show max response, negative = inhibition, hits mostly inhibitors. hit rate 0.43% among 200,000. AID 1478, 2009; active = well fitted curve in the direction sought with a large enough effect; inconclusive = small, poorly fitted or top-dose-only effect, or another doubt; inactive = no such curve, though single readings can be large; an effect the other way counts as inactive or inconclusive;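 note: plate controls were neutral wells for no effect and buffer without enzyme for full effect; nearly all actives have a fitted effect of over 40% in size; top concentration of the series not given in the record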
Target sequence (P25779 123-467 limits assumed): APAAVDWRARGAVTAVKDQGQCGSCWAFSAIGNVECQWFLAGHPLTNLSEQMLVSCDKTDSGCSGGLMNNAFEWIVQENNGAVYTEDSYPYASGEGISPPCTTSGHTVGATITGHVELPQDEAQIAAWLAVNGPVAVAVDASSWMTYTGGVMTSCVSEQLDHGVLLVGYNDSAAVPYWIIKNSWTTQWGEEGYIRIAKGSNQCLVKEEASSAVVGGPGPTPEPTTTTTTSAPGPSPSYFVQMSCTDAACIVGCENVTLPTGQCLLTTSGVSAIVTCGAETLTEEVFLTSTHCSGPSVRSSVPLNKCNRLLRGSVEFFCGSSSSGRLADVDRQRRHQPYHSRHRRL
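Cysteine protease activity tested under reducing, mildly acidic conditions (100 mM sodium acetate pH 5.5, 5 mM DTT) plus 0.01% Triton X-100. Cruzain 1.5 nM; substrate Z-FR-AMC 2 uM; 15 min compound preincubation at room temperature.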
Cruzain noTriton: qHTS Assay for Promiscuous and Specific Inhibitors of Cruzain (without detergent) | AID 1476, 2009 | hit rate 2.3% among 200,000 | Potency, µM, for inactives: max response, negative = inhibition, hits mostly inhibitors | Cruzipain (Trypanosoma cruzi), P25779 | purified cruzain, Z-FR-AMC fluorescence, no detergent; active = well fitted curve in the direction sought with a large enough effect; inconclusive = small, poorly fitted or top-dose-only effect, or another doubt; inactive = no such curve, though single readings can be large; an effect the other way counts as inactive or inconclusive;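 note: plate controls were enzyme without inhibitor for no effect and buffer without enzyme for full effect; nearly all actives have a fitted effect of over 40% in size; top concentration of the series not given in the record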
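Purified cruzain at 1.5 nM, pre-incubated 15 min with compound at room temperature in 100 mM sodium acetate pH 5.5, 5 mM DTT, 0.00005% Triton X-100. Reaction started with 2 uM Z-FR-AMC; AMC fluorescence increase over 60 s gives rate.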
SARS PLpro yeast: qHTS of Yeast-based Assay for SARS-CoV PLP. S. cerevisiae expressing SARS-CoV PLpro, growth rescue; control for the full effect not named in the record. Potency, µM (series often up to 32.9 µM), for inactives: at the top dose activity, positive = growth rescue. hit rate 0.19% among 330,000; note: 0% is about no effect; nearly all actives have a fitted effect of over 55% in size; growth read by luminescence after 48 h
StopGo reporter: High Throughput Screening for Foot and Mouth Disease Virus Antivirals; human cells with a luciferase reporter of 2A StopGo recoding; control for the full effect not named in the record; Potency, µM (titrated, usually from 57.9 µM), inactives show at the top dose signal change, negative = less light; hit rate 1.2% among 410,000; active = well fitted falling curve with a large enough effect; inconclusive = small, poorly fitted or top-dose-only effect; inactive = no such curve, though single readings can be large or run the other way; tested in HEK293T cells; note: % is set by controls: 0 for no effect and ±100 for the full control effect; nearly all actives have a fitted effect of over 45% in size; luciferase light after 4 h
NS1 inh: qHTS Assay for Inhibitors of Influenza NS1 Protein Function; Potency, µM (titrated, usually from 46.1 µM), without a hit: at the top dose activity, positive = more growth; hit rate 0.4% among 270,000; AID 2326, 2010; S. cerevisiae slowed by influenza A NS1, growth recovery by OD600; note: actives are rising curves; nearly all actives have a fitted effect of over 50% in size
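Compounds were scored for reversing the slow growth caused by influenza A NS1 in S. cerevisiae, measured by optical density at 600 nm. Assay medium contained 2% galactose at pH 6.0; NS1-free yeast of the same strain were the positive control.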
Lassa entry inh: qHTS for Inhibitors of binding or entry into cells for Lassa Virus; Lassa virus pseudotype entry inhibition, cell reporter; control for the full effect not named in the record; Potency, µM (series often up to 37.9 µM), inactives show top-dose activity change, negative = inhibition, usual class: inhibitors; hit rate 1.2% among 300,000; AID 540256, 2011; active means well fitted inhibition curve with a large enough effect; inconclusive means small, poorly fitted or top-dose-only effect, or effect the other way; inactive means flat fitted curve, though single readings scatter; tested in HEK293 cells; note: % is set by controls: 0 for no effect and ±100 for the full control effect; nearly all actives have a fitted effect of over 50% in size; luciferase read-out
RE007 growth inh: qHTS Assay for Inhibitors of the HIV-1 protein Vpr; Potency, µM (series often up to 92.2 µM), without a hit: at the highest dose activity change, negative = less growth; AID 651644, 2012; S. pombe RE007 Vpr strain, BacTiter-Glo ATP luminescence, 24 h; control for the full effect not named in the record; hit rate 0.21% among 360,000; active = well fitted falling curve with a large enough effect; inconclusive = small, poorly fitted or top-dose-only effect; inactive = no such curve, though single readings can be large or run the other way;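 note: % is set by controls: 0 for no effect and ±100 for the full control effect; nearly all actives have a fitted effect of over 50% in size; the assay follows cell death caused by Vpr and the record does not say whether a fall means rescue or toxicity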
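Fission yeast strain RE007, carrying one chromosomally integrated HIV-1 vpr copy, was seeded at OD 0.01 in PMG+AL medium with 23 nL pinned compound. After 24 h at 30 °C and 99% humidity, viability was read by BacTiter-Glo luminescence.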
* marks the source's active call; other numbers are inactive results; ? = inconclusive; / = no result given; & = joins results of further samples; [ ] = remark or other dose. Unless noted, calls come from the whole dose curve; as a rule, active means well fitted rising curve with a large enough effect; inconclusive means small, poorly fitted or top-dose-only effect; inactive means no such curve, though single readings can be large or run the other way. Potency is the fitted concentration of half-maximal effect. An unsorted share of the library; about 4.7% have a hit in one of these screens.

Start of the listing, in advance (9 entries):
SMILES	MARV entry inh	Cruzain inh Det	Cruzain noTriton	SARS PLpro yeast	StopGo reporter	NS1 inh	Lassa entry inh	RE007 growth inh
Clc1ccc(Nc2nc3cccnc3s2)cc1	-7%[46.1 µM]	/	/	-1%	48%[activator]	-7%	21%	-19%
CCCCN(C(=O)CSCc1ccc(C)cc1)c1c(N)n(Cc2ccccc2)c(=O)[nH]c1=O	?	/	/	/	-3%	/	?	-3%
CN(C)CCO/N=C(\c1ccc(Br)cc1)c1cccnc1	-3%	/	/	/	2%	/	?	-12%
CCc1ccc(OCC(=O)OC2CCS(=O)(=O)C2)cc1 (stereo not given)	16%	4.4%	5%	-3%	/	?	2%	-2%
O=C(CCSc1nc(-c2ccc3c(c2)OCO3)cc(C(F)(F)F)n1)NCc1ccccc1	?	-17%	5%	-14%	-8%	12%	0%	2%
FC(F)(F)COc1nc(N2CCCCC2)nc(N2CCNCC2)n1	?	3.1%	5%	-4%	-7%	6%	0%	9%
CCn1c(SCC(=O)N2CCCc3ccccc32)nc2c(c1=O)SC(C)C2 (stereo not given)	/	/	/	0%	-25%	-60%	/	13%
COc1cc(/C=N/NP(=S)(c2ccccc2)c2ccccc2)ccc1O	?	-8.1%	-7%	-7%	27%	29%	?	14%
COc1ccccc1NC(=O)C(=O)N1CCCC1	?	/	/	-2%	8%	/	16%[46.1 µM]	-23%

Main list (from the top)
SMILES	MARV entry inh	Cruzain inh Det	Cruzain noTriton	SARS PLpro yeast	StopGo reporter	NS1 inh	Lassa entry inh	RE007 growth inh
Clc1ccc(Nc2nc3cccnc3s2)cc1	-7%[46.1 µM]	/	/	-1%	48%[activator]	-7%	21%	-19%
CCCCN(C(=O)CSCc1ccc(C)cc1)c1c(N)n(Cc2ccccc2)c(=O)[nH]c1=O	?	/	/	/	-3%	/	?	-3%
CN(C)CCO/N=C(\c1ccc(Br)cc1)c1cccnc1	-3%	/	/	/	2%	/	?	-12%
CCc1ccc(OCC(=O)OC2CCS(=O)(=O)C2)cc1 (stereo not given)	16%	4.4%	5%	-3%	/	?	2%	-2%
O=C(CCSc1nc(-c2ccc3c(c2)OCO3)cc(C(F)(F)F)n1)NCc1ccccc1	?	-17%	5%	-14%	-8%	12%	0%	2%
FC(F)(F)COc1nc(N2CCCCC2)nc(N2CCNCC2)n1	?	3.1%	5%	-4%	-7%	6%	0%	9%
CCn1c(SCC(=O)N2CCCc3ccccc32)nc2c(c1=O)SC(C)C2 (stereo not given)	/	/	/	0%	-25%	-60%	/	13%
COc1cc(/C=N/NP(=S)(c2ccccc2)c2ccccc2)ccc1O	?	-8.1%	-7%	-7%	27%	29%	?	14%
COc1ccccc1NC(=O)C(=O)N1CCCC1	?	/	/	-2%	8%	/	16%[46.1 µM]	-23%
C/C(=N/NS(=O)(=O)c1ccc(Br)cc1)c1ccc(NC(=O)c2ccc(C)o2)cc1	?	-2.1%	?	6%	76%[activator]	-76%	-1%	25%
CCCCCCCC(=O)OCC(O)CO (stereo not given)	44%&44%&44%	1.3%	16%	-1%	-24%	6%	5%	0%
CC(=O)Nc1nc2n(n1)C(c1ccc(F)cc1)C=C(c1ccccc1)N2 (stereo not given)	-4%&-1%	-0.1%	-16%	3%	-18%	-1%	3%	-5%
Cc1cccc(N2CCN(C(=O)Cc3c(C(=O)O)c(C)cn3C)CC2)c1C	/	0.7%	-6%	/	-13%	/	3%[46.1 µM]	/
Cc1cccc(NC(=S)NN2CCN(C)CC2)c1C	9%[46.1 µM]	3.5%	0%	2%	-12%	1%	7%	25%
Cc1ccc(NC(=O)c2nc[nH]c2C(=O)NCC(=O)OC(C)(C)C)cc1	/	/	/	2%	-5%	0%	/	-2%
c1ccc2c(c1)oc1c(NCc3ccc4c(c3)OCO4)ncnc12	?	-5.5%	-4%	1%	?	-19%	-12%	-1%
O=C(CSc1nc(-c2ccc(F)cc2)nc2ccc(F)cc12)Nc1cccc(C(=O)O)c1	-6%[46.1 µM]	/	/	4%	-9%	-2%	-7%[46.1 µM]	4%
Cn1nnnc1SCC(=O)NCc1cccc(C(=O)O)c1	0%	7.1%	11%	-1%	0%	-8%	9%	0%
Cc1ccc(S(=O)(=O)c2nnn3c2nc(N2CCCC2)c2sccc23)cc1	/	0.5%	11%	/	-4%	/	12%[46.1 µM]	/
Cc1ccc(C)c(OCc2cc(C(=O)N(C)Cc3nccn3C)no2)c1	?	/	/	-5%	17%	-8%	8%	-15%
CC(=O)Nc1cc(-c2ccc(F)cc2)[nH]n1	3%[46.1 µM]	/	/	0%	13%	/	10%	5%
O=C(Nc1ccccc1F)OC1CN2CCC1CC2 (stereo not given)	-6%[46.1 µM]	/	/	-1%	10%	-1%	0%[46.1 µM]	-1%
CCOC(=O)C1(Cc2cccc(F)c2)CCN(Cc2ccc(COC)o2)CC1	/	/	/	0%	?	3%	/	-1%
COc1ccccc1NC(=O)C1CCCCC1	-19%[46.1 µM]	6.7%	0%	-3%	21%	-2%	-10%	?
C=CCC1(NC(C)c2ccccc2)CCCCC1 (stereo not given)	?	2.5%	-2%	-13%	0%	-2%	-15%	-7%
CCOC(=O)c1ccc(Nc2nc3nonc3nc2Nc2cccc(C)c2C)cc1	?	-7.8%	-18%	/	?	/	?	/
COc1ccccc1NC(=O)c1ccc(-n2cccn2)nc1	19%	-5.1%	8%	0%	9%	-30%	-4%	-8%
COc1ccc(N2C(=O)CSC2c2ccc([N+](=O)[O-])cc2)cc1 (stereo not given)	?	/	/	1%	-22%	3%	-6%[46.1 µM]	6%
CC(C)c1ccc(NC2CCCN(C(=O)c3cc(C(C)C)[nH]n3)C2)cc1 (stereo not given)	8%[46.1 µM]	/	/	4%	-13%	-1%	-10%[46.1 µM]	-3%
Cc1ccc(Cl)cc1NC(=O)c1sc(-n2nc(C)c(Cc3ccc4c(c3)OCO4)c2C)nc1C	11%[46.1 µM]	-0.1%	-10%	/	-9%	/	3%[46.1 µM]	/
O=C(NCc1cccs1)c1ccc(S(=O)(=O)N2CCCCC2)cc1	?	/	/	0%	-24%	/	?	-3%
Cc1ccc(CN(C)C(=O)CSc2nnc3n2CCCCC3)c(C)c1	?	/	/	1%	-19%	/	6%	27%
COc1cccc(/C=C2\N=C3CCCCCN3C2=O)c1	?	-8.5%	1%	4%	65%[activator]	11%	25%	6%
Cc1ccccc1C(=O)Nc1cccc(NC(=O)c2ccc(-c3ccc(Br)cc3)o2)c1	?	-2.0%	?	-8%	?	3%	?	-9%
Cc1cccc(C(=O)Nc2nnc(S(=O)(=O)N(C)Cc3ccccc3)s2)c1	/	-0.8%	1%	/	6%	/	1%[46.1 µM]	/
O=C1c2ccccc2C(=O)N1CC(=O)N1c2ccccc2Sc2ccc(C(F)(F)F)cc21	12%	-7.0%	?	-39%	4%	0%	0%	8%
CCCCN(CC(=O)NC1CCCC1)C(=O)C(=O)Nc1ccc2c(c1)OCCO2	4%[46.1 µM]	/	/	-1%	6%	-4%	-5%	-21%
CCCCCCc1nnc(N)s1	0%	3.1%	2%	3%	25%	-4%	15%	8%
C=C(C)[C@@H]1CC=C(CN2CCC(CCOC)(C(=O)OCC)CC2)CC1	?	/	/	1%	-7%	1%	0%[46.1 µM]	-1%
O=C(O)CSc1nnc(-c2ccc3c(c2)OCO3)o1	-8%	-2.8%	1%	-4%	-16%	5%	-17%	-5%
COC(=O)c1cc2c(cc1Cl)N1CCCCCC1=NS2(=O)=O	/	/	/	0%	4%	-2%	/	9%
CCCCOC(=O)Nc1ccc(N2CCCCC2)cc1	?	-0.7%	-10%	4%	4%	-9%	8.9µM*	-19%
CCN(CC)C(=O)Cn1cc(SCC(=O)Nc2cccc(F)c2)c2ccccc21	/	1.5%	10%	/	-25%	/	-6%[46.1 µM]	/
COc1ccc(C(=S)N2CCN(C)CC2)cc1Br	9%	2.7%	-4%	4%	-14%	-3%	-7%	-11%
C=CCNc1nc(C)c(CNc2c(C)cc(C)cc2C)nc1C#N	/	/	/	-3%	-10%	-34%	/	1%
CC(C)SCc1cc(N2CCCC2)nc(-c2ccccc2)n1	8%[46.1 µM]	/	/	-1%	-21%	/	-9%	-10%
Cc1ccc(C(=O)NC(=S)N2CCN(c3ccc([N+](=O)[O-])cc3)CC2)cc1	-1%	-8.1%	14%	6%	-26%	11%	10%	-14%
CC1(C)Cc2nc(N)c(C(=O)NCCO)cc2CO1	20%&20%[46.1 µM]	-6.4%	16%	30%	0%	-3%	?	-33%
Cn1c(N2CCCC2)nc2c1c(=O)n(Cc1ccc(F)cc1)c(=O)n2C	?	-1.7%	3%	-9%	-14%	-8%	?	32%
COc1ccc(Cn2c(C)ccc2C)cc1	8%	0.6%	-13%	2%	-21%	9%	-12%	-3%
Cc1ccc(OCC(=O)Nc2ccc(F)cc2)cc1C	-8%	-5.1%	0%	-23%	/	-11%	1%	0%
CC/C(=N\NC(=O)CSc1ncccn1)c1ccc2c(c1)OCCO2	1%	-1.9%	-9%	-19%	-2%	-2%	-13%	3%
Cn1c2ccccc2c2c(C(=O)NCC3CCCO3)cn(C3CCCC3)c(=O)c21 (stereo not given)	0%	2.4%	2%	-2%	-10%	-14%	-6%	-7%
